Screens (PubChem BioAssay)
CtBP-E1A inh: qHTS Assay for Inhibitors of the CtBP/E1A Interaction; CtBP / adenovirus E1A interaction (AlphaScreen); AlphaScreen GST-E1A/His-CtBP binding, 1536-well; active compounds read low; control for the full effect not named in the record; hit rate 0.49% among 340,000; AID 651724, 2012; activity change, % (concentration not given with the values); in the data active means activity change below about -65%; inconclusive means about -30% to -65%; inactive means above about -30%; note: % is set by controls: 0 for no effect and ±100 for the full control effect
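Steps: dispense buffer (Tris pH 8.0, NaCl 300 mM, TCEP 1 mM, BSA, Tween 20); add 5X protein mix (GST-E1A, His-CtBP, 125 nM each); pin 23 nL compound; 2 h at 37 °C, dark; add 5X beads (50 ug/mL); 1 h; read.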
D2 ag: Beta-Arrestin HTS for Positive Allosteric Modulators of the Human D2 Dopamine Receptor: Agonists; D(2) dopamine receptor (Homo sapiens), P14416; activation, % (test concentration not listed); DiscoveRx PathHunter D2 beta-arrestin, luminescence, 90 min; 100% = 57 uM dopamine signal; hit rate 0.084% among 360,000; in the data active = activation above about 40%; inconclusive = about 15% to 40%; inactive = below about 15%; note: compound concentration not given in the record; the text of the record calls up to 30% inactive
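DiscoveRx PathHunter D2 beta-arrestin cells (2,100/well) attached overnight, then compound-stimulated 90 min at 37 C in HBSS/10 mM HEPES/0.1% Tween-20 buffer; beta-galactosidase complementation read by luminescence after 1 h at ambient temperature. Dopamine 57 uM final (EC100) as control.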
gsp agonist: qHTS for Agonist of gsp, the Etiologic Mutation Responsible for Fibrous Dysplasia/McCune-Albright Syndrome: qHTS. gsp mutant cells, cAMP HTRF, 30 min; control for the full effect not named in the record. Potency, µM (titrated, usually from 76.9 µM), without a hit: top-dose activation (cAMP increase), most hits filed as activators. hit rate 0.13% among 340,000. AID 624287, 2012; active = well fitted activation curve with a large enough effect; inconclusive = small, poorly fitted or top-dose-only effect, or another doubt; inactive = no such curve, though single readings can be large or run the other way; cell line not stated here;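 note: phosphodiesterase inhibitor Ro 20-1724 added with compounds to block cAMP breakdown; potency is the fitted concentration of half-maximal effect; nearly all actives have a fitted effect of over 60% in size; about a fifth of the inactives were tested at one dose only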
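Cells stably selected in G418 were plated at 2000/well, grown 16-24 hr, then given compounds in DMSO with the PDE inhibitor […] (300 uM solution added) for 30 min at 37C; cAMP was read by HTRF.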
Six1-Eya2 inh: qHTS Assay for Inhibitors of the Six1/Eya2 Interaction; Homeobox protein SIX1 (Homo sapiens) + Protein phosphatase EYA2 (Homo sapiens), …; activity change, % (test concentration not listed); AlphaScreen GST-Six1/His-Eya2 binding, biochemical; active compounds read low; control for the full effect not named in the record; hit rate 0.56% among 360,000; in the data active = activity change below about -65%; inconclusive = about -30% to -65%; inactive = above about -30%; note: % is set by controls: 0 for no effect and ±100 for the full control effect
Target sequence (O00167 whole entry, looked up): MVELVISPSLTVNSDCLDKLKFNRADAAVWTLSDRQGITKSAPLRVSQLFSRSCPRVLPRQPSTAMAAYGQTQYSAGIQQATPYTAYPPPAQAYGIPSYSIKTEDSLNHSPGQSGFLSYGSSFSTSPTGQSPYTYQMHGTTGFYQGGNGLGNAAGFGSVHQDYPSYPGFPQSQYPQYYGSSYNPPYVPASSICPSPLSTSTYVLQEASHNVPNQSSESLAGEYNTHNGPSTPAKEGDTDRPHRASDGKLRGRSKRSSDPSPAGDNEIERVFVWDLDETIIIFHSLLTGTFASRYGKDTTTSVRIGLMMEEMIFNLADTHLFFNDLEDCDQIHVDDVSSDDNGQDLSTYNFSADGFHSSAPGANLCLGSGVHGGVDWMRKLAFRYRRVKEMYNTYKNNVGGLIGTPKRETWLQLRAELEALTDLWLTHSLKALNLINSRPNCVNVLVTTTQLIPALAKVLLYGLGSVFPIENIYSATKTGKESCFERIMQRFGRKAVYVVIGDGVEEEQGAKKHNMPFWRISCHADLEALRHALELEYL
Target sequence (Q15475 whole entry, looked up): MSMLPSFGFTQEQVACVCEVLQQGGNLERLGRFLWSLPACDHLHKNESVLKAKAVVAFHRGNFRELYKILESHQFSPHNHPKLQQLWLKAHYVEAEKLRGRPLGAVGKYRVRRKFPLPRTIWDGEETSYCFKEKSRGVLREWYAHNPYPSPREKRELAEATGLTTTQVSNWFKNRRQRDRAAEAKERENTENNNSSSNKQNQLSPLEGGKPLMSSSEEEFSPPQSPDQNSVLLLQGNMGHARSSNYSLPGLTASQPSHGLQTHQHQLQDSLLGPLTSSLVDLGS
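AlphaScreen with GST-Six1 and His-Eya2 (5X mix: 250 nM and 500 nM), glutathione donor and nickel acceptor beads; buffer 50 mM Tris pH 8.0, 300 mM NaCl, 1 mM TCEP; 1 h at 37 C in the dark.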
gsp antagonist: qHTS for Antagonists of gsp, the Etiologic Mutation Responsible for Fibrous Dysplasia/McCune-Albright Syndrome: qHTS; hit rate 0.4% among 340,000; gsp-mutant cells, cAMP HTRF, 30 min; control for the full effect not named in the record; Potency, µM (series often up to 76.9 µM), for the others: at the top dose activity change, negative = inhibition, actives largely listed as inhibitors; active = falling curve of any shape with a large fitted effect; inconclusive = falling curve, mostly with a smaller effect; inactive = flat or rising curve; cell line not stated here;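 note: intracellular cAMP measured with PDE inhibitor Ro 20-1724 present during compound exposure; potency is the fitted concentration of half-maximal effect; % is set by controls: 0 for no effect and ±100 for the full control effect; nearly all actives have a fitted effect of over 65% in size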
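HTRF cAMP read-out (cAMP-d2 plus anti-cAMP antibody-K in lysis buffer, 30 min RT). Before lysis, cells are exposed to compounds with […] for 30 min at 37C in DPBS containing Ca/Mg, BSA and Tween 20.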
D2 potentiator: Beta-Arrestin HTS for Positive Allosteric Modulators of the Human D2 Dopamine Receptor: Potentiators; D(2) dopamine receptor (Homo sapiens), P14416; DiscoveRx D2 beta-arrestin cells, luminescence, 90 min; 100% = 57 uM dopamine signal; potentiation, % (concentration not given with the values); hit rate 0.23% among 360,000; AID 624464, 2012; active = potentiation of 50% or more; inconclusive = 30% to 50%; inactive = 30% or less;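 note: compound concentration not given in the record; tested on top of an EC20 dose of dopamine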
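PathHunter D2 cells, attached overnight at 37 deg C, received compound in DMSO plus dopamine at EC20 (50 nM final) for 90 min at 37 deg C. Beta-arrestin recruitment was read as luminescence after 1 h with detection reagent at ambient temperature.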
The depositor's hits bear a star; ? = inconclusive; . = no result given; & = joins results of further samples; [ ] = remark or other dose.

#	smiles	CtBP-E1A inh	D2 ag	gsp agonist	Six1-Eya2 inh	gsp antagonist	D2 potentiator
1	COC(=O)c1c(NC(=O)c2ccc(C)o2)sc2c1CCCCC2	51	-0.5	0%	63	-2%	-5
2	CCN(CC)S(=O)(=O)c1ccc2[nH]cc(C(=O)NCCC3=CCCCC3)c(=O)c2c1	-8	6.2	?	-7	-16%	?
3	c1cncc(-c2nc(-c3ccc4c(c3)OCCO4)cs2)c1	3	2.2	25%	-4	-2%	-7
4	COc1ccc(OCC(=O)OCCN(C)C)cc1	0	-0.3	-10%	15	-3%	-1
5	Cc1ccc(N2CC(C(=O)Nc3nnc(SCCN4CCOCC4)s3)CC2=O)cc1 (stereo not drawn)	-2	-2.7	4%	2	1%	-7
6	C[C@H]1CN([C@@H](C)CO)S(=O)(=O)c2ccc(Br)cc2O[C@H]1CN(C)C(=O)CCN1CCCCC1	-10	-3.7	-35%[inhibitor]	5	.	-9
7	CC(C)C[C@@H](CN)NC(=O)c1nc[nH]c1C(=O)N[C@@H](C)C(=O)CNC[C@H](C)NC(=O)c1nc[nH]c1C(=O)N[C@@H](CC(=O)O)C(=O)O	-11	-2.4	.	-9	4%	-3
8	COc1cc(O)c(C(C)=O)c(CC(=O)O)c1	2	4.6	.	?	7%	-9
9	COCCn1c(COc2cccc(OC)c2)nnc1SCC(=O)N1CCOCC1	3	-0.3	15%	5	1%	-5
10	NS(=O)(=O)c1ccc(CCNC(=O)CNC(=O)Cc2cccc3ccccc23)cc1	.	3.0	0%	-1	6%	-10
11	CCOc1ccccc1OCC(=O)Oc1ccc(C)c(C)c1	.	0.5	-16%	-1	-2%	-8
12	O=C1CCCN1CC(CN1CCOCC1)Sc1nnnn1-c1ccccc1 (stereo not drawn)	9&-2	-2.5&-2.0	-12%&0%	0&0	0%&-12%	-4&17
13	COc1ccc(-c2cc(C(=O)NCc3cccnc3)no2)cc1OC	-11	3.1	7%	-2	4%	-7
14	NS(=O)(=O)c1cccc(NC(=O)COC(=O)CCC2CCCC2)c1	-4	-2.1	27%[15.4 µM]	-13	-3%	1
15	Cc1ccc(NC(=O)CNc2cc(S(=O)(=O)N3CCOCC3)ccc2NCC2CCCO2)cc1F (stereo not drawn)	-12	-2.8	-7%[15.4 µM]	1	-5%	-27
16	COc1ccccc1C1CC(c2cccs2)=NN1C(=O)CCC(=O)O (stereo not drawn)	7	0.6	-5%	5	-23%	-3
17	CC(=O)NCCCc1nc2ccccc2n1Cc1cc(C)ccc1C	-3	-4.3	17%[15.4 µM]	13	-5%	-11
18	COc1ccc(OC)c(C2=NOC(C(=O)NCc3cccnc3)C2)c1 (stereo not drawn)	11	-0.8	8%[15.4 µM]	3	-5%	-2
19	Cc1ccc(S(=O)(=O)CCC(=O)OCC(=O)N(C)Cc2ccccc2)cc1	6	-5.3	25%	3	-17%	-21
20	CCCCNC(=O)c1cc(-c2ccc(OC)cc2)on1	46	-2.1	-47%[inhibitor]	21	10%	1
21	CCOCCCNC(=S)Nc1ccc(S(N)(=O)=O)cc1	5	-0.7	?	2	13%	-6
22	O=C(CCC(=O)NNC(=O)Nc1cccc(Cl)c1)NCc1ccccc1	9	-5.4	-11%[15.4 µM]	7	8%	-2
23	COc1ccc2c(c1)CCc1c(C(=O)N(C)c3ccccc3)noc1-2	-13	-2.9	8%	0	-6%	-3
24	O=C(Nc1ccccc1C(F)(F)F)c1cc2ncc(CCCl)cn2n1	13	2.0	-3%	7	?	-1
25	Cc1cc(Br)ccc1NC(=O)CN(C)C(=O)c1cccc(S(=O)(=O)N2CCN(C)CC2)c1	-1	8.6	-26%	2	-1%	-8
26	O=[N+]([O-])c1cccc(/C=N/Nc2nccnc2Cl)c1	-17	0.8	31%	-7	6%	-13
27	COc1ccc(-c2cc(C(=O)Nc3ccc(C)c(C)c3)no2)cc1	.	-1.8	?	0	14%	-6
28	COc1ccccc1NC(=S)NNC(=S)Nc1ccc(OC(F)F)cc1	-8	-2.6	-23%[15.4 µM]	0	-25%	-2
29	Cc1cc(Br)ccc1OCc1nc(-c2cccnc2)no1	5	1.7	-10%	5	4%	-4
30	C[C@H](CO)N1C[C@H](C)[C@H](CN(C)C(=O)Nc2ccc(-c3cccs3)cc2)OCc2cnnn2CCCC1=O	3	-2.2	-17%	-5	.	-3
31	CC(=O)Nc1ccc(-c2ccnc3c2CC(C)(C(=O)NCc2ccncc2)O3)cc1 (stereo not drawn)	-1	-4.0	.	10	.	-4
32	COC(=O)c1ccc(OC)c(OC)c1Cl	8	-0.5	1%[15.4 µM]	5	23%	2
33	CCNc1nc(Oc2ccc(C(=O)OC)cc2)nc(SC)n1	-1	2.3	0%	0	-6%	3
34	Cc1ccccc1C(=O)N1CCCN(C(=O)c2ccccc2C)CC1	28	-3.7	?	19	5%	-3
35	Cc1oc(/C=N/NS(=O)(=O)c2ccccc2)cc1Br	5	-2.8	-43%[inhibitor]	9	7%	-4
36	O=S(=O)(c1ccccc1)N1CCC(n2cnc3ccccc32)CC1	0	-1.8	9%[15.4 µM]	1	-3%	-6
37	CC1CN(C(=O)COc2ccc3c(-c4ccccc4)cc(=O)oc3c2)CC(C)O1 (stereo not drawn)	.	-2.6	3%	-3	-8%	-4
38	COc1ccc(CNC(=O)CN(Cc2ccccc2F)C(=O)c2csnn2)cc1	0	-1.4	1%	-6	8%	-3
39	O=C(NCCCN1CCCC1=O)c1ccc(S(=O)(=O)Nc2ccccc2F)cc1	0	-4.1	9%[15.4 µM]	-2	2%	4
40	COc1cccc(OCc2nc(-c3cccc([N+](=O)[O-])c3)no2)c1	-10	-0.7	?	-21	-5%	3
41	CC(C)(C)c1ccc(C(=O)O/N=C(\N)c2ccccn2)cc1	-1	?	19%	6	3%	9
42	Cc1ccccc1CCNC(=O)C1CC(O)CN1C(=O)Nc1ccccc1 (stereo not drawn)	9	-2.5	1%	0	1%	-2
43	CCOc1cccc(CN2CCC(n3nccc3NC(=O)c3ccc4c(c3)OCO4)CC2)c1	5	-5.8	-23%	-3	-8%	-33
44	O=C(c1nsnc1-c1ccccc1O)N1CCCCC1	6	-0.6	0%	3	-3%	-3
45	Oc1[nH]c2ccccc2c1/C=N/N1CCCCC1	0	-10	?	0	0%	-39
46	CCC1CCCCN1CCCNC(=O)CN1C(=O)CSc2ccc(S(=O)(=O)N3CCOCC3)cc21 (stereo not drawn)	-1	-3.8	19%	4	5%	-21
47	COc1cc(C)c(CN2CCN(CC(=O)Nc3ccccc3C(=O)NC3CC3)CC2)cc1OC	-6	1.8	12%	-1	2%	-6
48	Cc1c(N=C(N)/N=C(\N)Nc2ccc(Br)cc2)c(=O)n(-c2ccccc2)n1C	8	-1.1	-51%[inhibitor]	0	3%	-10
49	O=C(CSc1n[nH]c(=O)n1Cc1ccccc1)Nc1ccc(N2CCOCC2)cc1	-1	-4.1	-22%	3	-2%	-25
50	O=C1CSC(=S)N1N=Cc1cccc(OCc2ccccc2)c1	-14	7.0	-54%[inhibitor]	-23	.	-24
51	Cc1ccc(-c2noc(CN3CCOCC3)n2)cc1	11	-1.3	23%	5	3%	-2
52	CCOc1ccc(CN2C(=O)CC(=O)N(S(=O)(=O)c3ccc(OCC)cc3)C2=O)cc1	3	4.4	18%[15.4 µM]	-2	-2%	2
53	COc1ccccc1OCc1ccc(C(=O)N/N=C/c2ccco2)cc1	-5	-2.1	-5%	-1	-9%	-25
54	CC(=O)OCCC(NS(=O)(=O)OCC(Cl)(Cl)Cl)c1ccccc1 (stereo not drawn)	-10	-3.1	4%	11	-5%	-5
55	CCOc1ccc(NC(=O)CN2C(=O)CSC2=O)cc1	-22	2.5	14%	-26	-4%	-4
56	CCOC(=O)COc1ccc(/C=C/[N+](=O)[O-])c(OCC(=O)OCC)c1	1	2.9	10%	-1	17%	-7
57	O=C(c1ccc2c(c1)N(Cc1cccc(Cl)c1)C(=O)c1ccccc1S2(=O)=O)N1CCN(c2ccccn2)CC1	.	0.3	-60%[inhibitor]	10	-15%	-17
58	CN(C(=O)c1cccnc1)c1nnc(-c2ccccn2)s1	-2	-3.4	?	-8	6%	-6
59	Cc1ccc(C)c(NC(=O)C(Sc2nnc(-c3cccs3)o2)c2ccccc2)c1 (stereo not drawn)	4	-5.0	-21%	12	?	-24
60	CC(Cn1cnc2ccccc21)C(=O)O (stereo not drawn)	-4	-2.3	8%	1	10%	-8

Carrying on:
#	smiles	CtBP-E1A inh	D2 ag	gsp agonist	Six1-Eya2 inh	gsp antagonist	D2 potentiator
61	CCOC(=O)c1sc(N)c(C#N)c1COC(=O)CNC(=O)c1ccccc1	1	-2.6	-69%[inhibitor]	-6	-21%	-9
62	c1ccc(CN2CCN(Cc3nnc(-c4ccccc4)o3)CC2)cc1	-3	-0.4	27%[15.4 µM]	1	-39%	-3
63	CCSCc1nnc(SCC(=O)Nc2nc3ccccc3s2)n1C	0	-1.5	6%	2	-3%	5
64	CN=c1scc(-c2ccc(Br)cc2)n1C	-1	-2.9	3%	-6	11%	-18
65	COc1ccc(Nc2c(-c3ccc(OC)cc3)nc3cnccn23)cc1	.	2.1	4%	-11	?	-3
66	CCCC(=O)OCCNc1cc(Sc2nccn2C)c2nonc2c1[N+](=O)[O-]	-1	-4.4	-10%	?	-19%	-37
67	Cc1[nH]c2ccccc2c1/C=C(\C#N)C(=O)NC1CC1	?	-3.4	15%	-14	2%	-15
68	FC(F)(F)c1cccc(CNC2c3ccccc3-c3ccccc32)c1	31	-0.4	23%[15.4 µM]	32	0%	-7
69	O=C(Nc1ccccc1N1CCOCC1)C1Cc2ccccc2CN1C(=O)c1ccco1 (stereo not drawn)	-2	-1.9	?	-1	-13%	-3
70	O=C(O)c1ccc(N=NN2CCCC2)cc1	8	-1.6	9%	0	-1%	-3
71	COc1nc(Nc2ccccc2)nc(OC)n1	5	-4.9	-3%[15.4 µM]	24	12%	-5
72	Cc1cccc(NC(=O)c2cc([N+](=O)[O-])ccc2N2CCOCC2)c1C	12	-2.6	-43%[inhibitor]	-4	.	-1
73	CC(=O)c1cc(C#N)c(SCC(=O)OC(C)(C)C)nc1C	0	-4.6	6%	3	6%	-37
